Assay outcomes as filed in PubChem BioAssay.
SARS PLpro yeast: qHTS of Yeast-based Assay for SARS-CoV PLP. S. cerevisiae expressing SARS-CoV PLpro, growth rescue; control for the full effect not named in the record. Potency, µM (titrated, usually from 32.9 µM), for the others: at the top dose activity, positive = growth rescue. hit rate 0.19% among 330,000; note: 0% is about no effect; nearly all actives have a fitted effect of over 55% in size; growth read by luminescence after 48 h
NS1 function inh: qHTS Assay for Inhibitors of Influenza NS1 Protein Function | S. cerevisiae slowed by influenza A NS1, growth recovery by OD600 | Potency, µM (highest dose often 46.1 µM), for the others: at the top dose activity, positive = more growth | hit rate 0.4% among 270,000 | AID 2326, 2010; note: actives are rising curves; nearly all actives have a fitted effect of over 50% in size
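In this qHTS, NS1 from influenza A is expressed in budding yeast, where it slows growth. Cells are switched from glucose to 2% galactose medium (pH 6.0, -URA), treated with compound, and growth recovery is read at OD600.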
Lassa entry inh: qHTS for Inhibitors of binding or entry into cells for Lassa Virus; Potency, µM (top dose mostly 37.9 µM), without a hit: top-dose activity change, negative = inhibition, most hits filed as inhibitors; hit rate 1.2% among 300,000; Lassa virus pseudotype entry inhibition, cell reporter; control for the full effect not named in the record; active means well fitted inhibition curve with a large enough effect; inconclusive means small, poorly fitted or top-dose-only effect, or effect the other way; inactive means flat fitted curve, though single readings scatter; tested in HEK293 cells; note: % is set by controls: 0 for no effect and ±100 for the full control effect; nearly all actives have a fitted effect of over 50% in size; luciferase read-out
Cruzain inh Det: qHTS Assay for Promiscuous and Specific Inhibitors of Cruzain (with detergent) | Cruzipain (Trypanosoma cruzi), P25779 | purified cruzain, Z-FR-AMC fluorescence, 0.01% Triton | Potency, µM, for inactives: max response, negative = inhibition, actives largely listed as inhibitors | hit rate 0.43% among 200,000; active = well fitted curve in the direction sought with a large enough effect; inconclusive = small, poorly fitted or top-dose-only effect, or another doubt; inactive = no such curve, though single readings can be large; an effect the other way counts as inactive or inconclusive;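 note: plate controls were neutral wells for no effect and buffer without enzyme for full effect; nearly all actives have a fitted effect of over 40% in size; top concentration of the series not given in the record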
Target sequence (P25779 123-467 limits assumed): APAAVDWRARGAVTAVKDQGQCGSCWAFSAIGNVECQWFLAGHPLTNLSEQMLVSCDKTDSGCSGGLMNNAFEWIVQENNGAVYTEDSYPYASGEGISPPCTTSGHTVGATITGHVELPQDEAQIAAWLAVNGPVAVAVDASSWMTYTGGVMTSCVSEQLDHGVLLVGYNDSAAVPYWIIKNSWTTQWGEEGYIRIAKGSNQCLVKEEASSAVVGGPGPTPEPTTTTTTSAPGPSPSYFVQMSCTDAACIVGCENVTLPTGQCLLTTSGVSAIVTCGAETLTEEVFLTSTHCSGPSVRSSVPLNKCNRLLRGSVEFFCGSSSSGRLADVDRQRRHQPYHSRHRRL
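Detergent-containing arm of a paired screen for aggregation-based inhibition: 0.01% Triton X-100 present. Cruzain at 1.5 nM cleaved 2 uM Z-FR-AMC at pH 5.5 with 5 mM DTT; AMC fluorescence gain over 60 s measured activity.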
RE007 growth inh: qHTS Assay for Inhibitors of the HIV-1 protein Vpr; S. pombe RE007 Vpr strain, BacTiter-Glo ATP luminescence, 24 h; control for the full effect not named in the record; Potency, µM (titrated, usually from 92.2 µM), inactives show at the top dose activity change, negative = less growth; hit rate 0.21% among 360,000; active = well fitted falling curve with a large enough effect; inconclusive = small, poorly fitted or top-dose-only effect; inactive = no such curve, though single readings can be large or run the other way;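 note: % is set by controls: 0 for no effect and ±100 for the full control effect; nearly all actives have a fitted effect of over 50% in size; the assay follows cell death caused by Vpr and the record does not say whether a fall means rescue or toxicity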
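Fission yeast strain RE007, carrying one chromosomally integrated HIV-1 vpr copy, was seeded at OD 0.01 in PMG+AL medium with 23 nL pinned compound. After 24 h at 30 °C and 99% humidity, viability was read by BacTiter-Glo luminescence.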
Cruzain noTriton: qHTS Assay for Promiscuous and Specific Inhibitors of Cruzain (without detergent); Cruzipain (Trypanosoma cruzi), P25779; purified cruzain, Z-FR-AMC fluorescence, no detergent; Potency, µM, inactives show max response, negative = inhibition, actives largely listed as inhibitors; hit rate 2.3% among 200,000; AID 1476, 2009; active = well fitted curve in the direction sought with a large enough effect; inconclusive = small, poorly fitted or top-dose-only effect, or another doubt; inactive = no such curve, though single readings can be large; an effect the other way counts as inactive or inconclusive;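 note: plate controls were enzyme without inhibitor for no effect and buffer without enzyme for full effect; nearly all actives have a fitted effect of over 40% in size; top concentration of the series not given in the record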
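Purified cruzain at 1.5 nM, pre-incubated 15 min with compound at room temperature in 100 mM sodium acetate pH 5.5, 5 mM DTT, 0.00005% Triton X-100. Reaction started with 2 uM Z-FR-AMC; AMC fluorescence increase over 60 s gives rate.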
Marburg entry inh: qHTS for inhibitors of binding or entry into cells for Marburg Virus | Marburg virus pseudotyped entry inhibition, cell reporter; control for the full effect not named in the record; about a third of the inactives were read at about 46 µM | Potency, µM (highest dose often 37.8 µM), without a hit: at the top dose activity change, negative = inhibition, usual class: inhibitors | hit rate 1.8% among 300,000 | AID 540276, 2011; active = well fitted inhibition curve with a large enough effect; inconclusive = small, poorly fitted or top-dose-only effect, or effect the other way; inactive = flat fitted curve, though single readings scatter; tested in HEK293 cells; about a fifth of its hits are not listed in these tables; note: % is set by controls: 0 for no effect and ±100 for the full control effect; luciferase read-out
StopGo reporter: High Throughput Screening for Foot and Mouth Disease Virus Antivirals. human cells with a luciferase reporter of 2A StopGo recoding; control for the full effect not named in the record. Potency, µM (doses to about 57.9 µM), without a hit: top-dose signal change, negative = less light. hit rate 1.2% among 410,000. AID 1159524, 2015; active = well fitted falling curve with a large enough effect; inconclusive = small, poorly fitted or top-dose-only effect; inactive = no such curve, though single readings can be large or run the other way; tested in HEK293T cells; note: % is set by controls: 0 for no effect and ±100 for the full control effect; nearly all actives have a fitted effect of over 45% in size; luciferase light after 4 h
* = called active by the depositor; ? = inconclusive; . = no result given; & = joins results of further samples; [ ] = remark or other dose. Unless noted, calls come from the whole dose curve; as a rule, active means well fitted rising curve with a large enough effect; inconclusive means small, poorly fitted or top-dose-only effect; inactive means no such curve, though single readings can be large or run the other way. Potency is the fitted concentration of half-maximal effect. Compounds were not picked by outcome; 4.7% or so of the library scored in one or more.

Results follow in this order: NS1 function inh | Cruzain inh Det | Cruzain noTriton | RE007 growth inh | StopGo reporter | Marburg entry inh | SARS PLpro yeast | Lassa entry inh
- COc1ccc(-c2cc(=NCCC(=O)O)c3cc(C)ccc3o2)cc1
→ . | . | . | -4% | 63%[activator] | ? | 1% | -21%
- COc1ccc(Br)c(C(=O)Nc2nc3ccccc3[nH]2)c1
→ ? | . | . | 3% | 32%[activator] | ? | 5% | 5%[46.1 µM]
- CN(C)N1C(=O)C2C3C=CC(O3)C2C1=O (stereo unspecified)
→ . | . | . | -8% | 8% | -2%[46.1 µM] | . | 13%[46.1 µM]
- Cc1cc(C)cc(Nc2ncnc3nc[nH]c23)c1
→ -2% | . | . | 7% | 41%[activator] | ? | 1% | ?
- Cc1n[nH]c(=S)c2nn(-c3cccc(Cl)c3)c(C)c12
→ 12% | -3.0% | -1% | . | . | -6% | 4% | .
- O=C(NCCN1CCN(c2ccccc2Cl)CC1)Nc1ccccc1
→ 2% | . | . | -14% | -5% | 5% | 1% | .
- CCOc1ccc(C(=O)Nc2cc(C)on2)cc1OCC
→ -6% | 9.3% | 20% | 17% | 17% | 3% | -1% | -17%
- CC(C)Cc1ccc(S(=O)(=O)NCc2nc3cccnc3n2Cc2ccccc2)cc1
→ . | -6.3% | -3% | . | 17% | . | . | 5%[46.1 µM]
- Oc1ccc(C[C@@H]2CNC(=S)N2CCCCC2CCCCC2)cc1
→ 7% | . | . | -2% | 34%[activator] | . | 0% | .
- Cc1nc2c(c(=O)c3ccccc3n2C)c(=O)n1C1CCCCCC1
→ -5% | . | . | -9% | 24% | ? | 1% | 15%
- CCOC(=O)C1CCCN(C(=O)c2ccc(C)cc2O)C1 (stereo unspecified)
→ 1% | -0.4% | 2% | 9% | 0% | 4% | 11% | ?
- COc1cc(C(=O)Nc2ccc(S(=O)(=O)N3CCc4ccccc43)cc2)cc(OC)c1OC
→ 6% | -0.7% | ? | 23% | 2% | 12µM* | 16% | -19%
- COc1ccc(S(=O)(=O)N2CCOCC2)cc1NC(=O)COC(=O)CCOc1ccc(C)cc1
→ . | . | . | -3% | -8% | 15% | -8% | 1%[46.1 µM]
- CC(C)OCCCNC(=O)c1cccs1
→ -2% | 4.0% | 15% | -3% | 9% | 19% | 3% | -18%
- CCOc1cc(-c2nnc(SCC(=O)NCCCOC)nc2-c2ccc(OC)c(OCC)c2)ccc1OC
→ . | -1.3% | ? | . | 1% | . | . | -29%[46.1 µM]

Some entries already given with just RE007 growth inh, Cruzain noTriton and Cruzain inh Det.
compound,RE007 growth inh,Cruzain noTriton,Cruzain inh Det
Cc1cc(C)cc(Nc2ncnc3nc[nH]c23)c1,7%,.,.
Cc1n[nH]c(=S)c2nn(-c3cccc(Cl)c3)c(C)c12,.,-1%,-3.0%
O=C(NCCN1CCN(c2ccccc2Cl)CC1)Nc1ccccc1,-14%,.,.
CCOc1ccc(C(=O)Nc2cc(C)on2)cc1OCC,17%,20%,9.3%
CC(C)Cc1ccc(S(=O)(=O)NCc2nc3cccnc3n2Cc2ccccc2)cc1,.,-3%,-6.3%
Oc1ccc(C[C@@H]2CNC(=S)N2CCCCC2CCCCC2)cc1,-2%,.,.

The main list resumes, starting 2 compounds before the break.
Results follow in this order: NS1 function inh | Cruzain inh Det | Cruzain noTriton | RE007 growth inh | StopGo reporter | Marburg entry inh | SARS PLpro yeast | Lassa entry inh
- CC(C)OCCCNC(=O)c1cccs1
→ -2% | 4.0% | 15% | -3% | 9% | 19% | 3% | -18%
- CCOc1cc(-c2nnc(SCC(=O)NCCCOC)nc2-c2ccc(OC)c(OCC)c2)ccc1OC
→ . | -1.3% | ? | . | 1% | . | . | -29%[46.1 µM]
- CC(=O)c1cccc(NC(=O)N2CCCC2C(=O)NCc2ccc(F)cc2)c1 (stereo unspecified)
→ 7% | 1.7% | -5% | 18% | -17% | 9% | 8% | 2%
- CC(C)N1CCC(=NNc2ccc([N+](=O)[O-])cc2S(=O)(=O)N2CCOCC2)CC1
→ . | . | . | -4% | -16% | -6%[46.1 µM] | 0% | -29%
- Cc1ccc2oc(-c3cccc(NC(=O)/C=C/c4cccc([N+](=O)[O-])c4)c3C)nc2c1
→ 2% | -0.7% | 16µM* | -19% | -17% | 4% | 0% | -1%
- O=C(O)c1ccccc1NCc1ccncc1
→ -12% | 0.1% | -1% | -4% | -8% | 21% | -9% | 4%
- O=C(N/C(=C/c1ccc(Br)cc1)C(=O)N1CCCCC1)c1ccccc1F
→ 13% | . | . | 2% | 14% | -2% | 3% | -20%
- COc1cccc(CNC(=O)CCCn2nc(C)c3c(C)n(-c4ccc(C)cc4)nc3c2=O)c1OC
→ 0% | -2.0% | 5% | -2% | ? | -17%&-17%[46.1 µM] | 18% | 9%&8%[46.1 µM]
- Cn1cccc1C1(C(F)(F)F)NCCNC1=O (stereo unspecified)
→ 11% | -2.4% | ? | -7% | 8% | 2% | -8% | -17%
- Cc1ccc(NC(=O)/C(=C/c2cccc(Br)c2)NC(=O)c2ccco2)cc1
→ 2% | -6.5% | 10% | -1% | 25% | -6% | 7% | ?
- CCOC(=O)N1CCN(C(=O)CCc2ccc(S(=O)(=O)NC(C)C)cc2)CC1
→ 10% | . | . | 5% | 5% | . | -2% | .
- COc1cc(C(=O)NCc2ccc(-c3nc4ccccc4o3)cc2)cc(OC)c1OC
→ 4% | 3.3% | 4% | 17% | -4% | ? | . | ?
- Cc1nc(CN(C)C(=O)c2cc(COc3ccc4ncccc4c3)on2)cs1
→ -3% | . | . | -5% | ? | ? | -1% | ?
- CCn1cc(C(=O)NCc2ccccc2Cl)c(=O)c2cc(S(=O)(=O)N3CCCCC3)ccc21
→ . | -0.8% | -5% | . | -19% | -3%[46.1 µM] | . | 0%[46.1 µM]
- Cc1[nH]c2ccc(Br)cc2c(=O)c1CN1CCCCC1
→ 7% | 0.5% | -4% | 13%[3.69 µM] | 1% | -28% | 16% | ?
- CN(C1CCCCC1)C(CNS(=O)(=O)c1ccccc1)c1ccccc1 (stereo unspecified)
→ -10% | . | . | -4% | 3% | . | -1% | .
- CC(C)CC(C(=O)NCC1CCCO1)N(C(=O)Cn1nnc(-c2ccc(F)cc2)n1)c1ccccc1F (stereo unspecified)
→ -6% | -2.9% | ? | 3% | -1% | ? | 0% | 0%
- O=C(COC(=O)C(Cc1ccccc1)NC(=O)c1ccccc1)c1ccccc1 (stereo unspecified)
→ 13% | -18% | -12% | 4% | 8% | 0%[46.1 µM] | 16% | 0%[46.1 µM]
- O=C(CCC(=O)N/N=C/c1ccc(Br)s1)NCc1ccccc1
→ -1% | -0.4% | -12% | 8% | -13% | -20% | -5% | 2%
- O=C(NCCN1CCOCC1)C(=O)NCC1OCCN1C(=O)c1ccc(Cl)cc1 (stereo unspecified)
→ 8% | 1.1% | 0% | 2% | -23% | 13% | 2% | 0%
- CCOCCCNC(=O)c1ccc(Br)cc1
→ 5% | 3.6% | 6% | 7% | 52%[activator] | 3% | 2% | ?
- CC(=O)CCc1oc2ccc(C)cc2c1-c1ccccc1
→ 2% | . | . | 2% | -18% | 1% | -2% | 4µM*
- CCOC(=O)c1c(C(C#N)C#N)cc(C)nc1C
→ 8% | -4.5% | -3% | -5% | 18% | -10%[46.1 µM] | -8% | 0%
- O=C(NCCc1csc(-c2ccc(C(F)(F)F)cc2)n1)C(=O)Nc1cc(F)ccc1F
→ . | -2.4% | -4% | . | ? | . | . | 25%[46.1 µM]
- Cc1ccc(S(=O)(=O)NCCCNS(=O)(=O)c2ccccc2[N+](=O)[O-])cc1
→ -13% | . | . | 16% | 13% | . | -6% | .
- COc1ccccc1CCC(=O)Nc1nccs1
→ 1% | . | . | -5% | 21% | 29% | -2% | 24%
- O=C1NC(=O)N(c2ccccc2F)C(=O)/C1=C/c1ccc(Sc2nc3ccccc3[nH]2)o1
→ -5% | -5.6% | 8% | ? | ? | -1%&-6% | -4% | 1%&0%
- COc1cccc(CNC(=O)C2CCN(c3nn4c(=O)cc(C)nc4s3)CC2)c1
→ 29% | -8.7% | 10% | -4% | 17%&-3% | ? | -1% | 24%&-8%[46.1 µM]
- CCCCSc1nc(C)cc(C)c1S(=O)(=O)c1ccccc1C
→ -4% | -3.9% | -5% | 4% | 5% | ? | -10% | -2%
- O=C(Nc1ccc(S(=O)(=O)N2CCCCC2)cc1)c1ccco1
→ -2% | . | . | 23% | 4% | 18%[46.1 µM] | 1% | -26%[46.1 µM]
- CCn1cc(Br)c(C(=O)N(C)Cc2ccccc2)n1
→ -2% | 2.4% | -3% | -4% | . | -5% | 4% | 19%
- COc1ccc(/C=N/NC(=O)c2ccc(Br)o2)cc1Cn1cc([N+](=O)[O-])cn1
→ 6% | -12% | ? | 12% | -15% | 23% | 14% | ?
- Cn1cc(CN2CCN(Cc3cccnc3)CC2)c(-c2ccc3c(c2)OCCO3)n1
→ -1% | . | . | 1% | 3% | 4%[46.1 µM] | 0% | ?
- CC(=O)c1cc2c(cc1NC(=O)CN1CCN(c3ccc(F)cc3)CC1)OCO2
→ 1% | -7.9% | 0% | -6% | 25% | 21% | -7% | ?
- COc1ccc(-c2[nH]ncc2CN2C[C@@H]3CCC[C@H]2C3)c(F)c1
→ -1% | . | . | 0% | -13% | ? | 5% | -6%
- Cc1cccc(OCc2nc(C#N)c(N3CCCC3)o2)c1
→ -5% | . | . | -15% | -20% | -26% | -1% | -6%
